Ba CapD inh: blocks the Bacillus anthracis CapD enzyme; z-score (test concentration not listed); purified CapD enzyme, fluorescence intensity read-out; active compounds read low; some hits fall short of the stated cut; hit rate 0.23% among 140,000;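 active means z-score under -4 in either of two replicates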;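 further: stock transfer was 100 nL into about 40 µL; score is relative to mean and spread of the plate; one replicate is shown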
AID504770: growth inhibitors of E. coli YBA685 in a screen for V. cholerae RctB (chromosome II replication) inhibitors | E. coli YBA685 rctB-dependent plasmid, OD600 growth, 3 h; active compounds read low | z-score (no concentration beside the values) | hit rate 0.27% among 130,000 | AID 504770;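 active means z-score under -2 on both plates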;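 further: wells of about 30 µL received 100 nL stock; score is relative to mean and SD of the test wells; the first replicate is given; strong numbers were not always called active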
An asterisk follows results filed as active; nt = not tested or not shown. A portion of the library (hit frequency here may not be typical).

Start of the data: the first 6 entries as a preview:
SMILES | Ba CapD inh | AID504770
COc1cc(C#N)ccc1OCC(=O)NCC(C)C | nt | 0.3
Cc1cc(C)n(C(=O)c2ccncc2)n1 | -0.305 | -1.5
CCOC(=O)c1cc(-c2ccc(N(CC)CC)cc2)no1 | -2.81 | -0.65
O=C1C2C3c4ccccc4C(CO)(c4ccccc43)C2C(=O)N1c1ccc(I)cc1 (centres undefined) | -0.195 | nt
CC(=O)N(Cc1ccco1)C1(C(=O)NC2CCCCC2)CCCCC1 | -1.7 | nt
O=C1C=C(NCc2ccccc2)C2(CCCCC2)O1 | 0.42 | -0.75

The list itself, from the first entry:
SMILES | Ba CapD inh | AID504770
COc1cc(C#N)ccc1OCC(=O)NCC(C)C | nt | 0.3
Cc1cc(C)n(C(=O)c2ccncc2)n1 | -0.305 | -1.5
CCOC(=O)c1cc(-c2ccc(N(CC)CC)cc2)no1 | -2.81 | -0.65
O=C1C2C3c4ccccc4C(CO)(c4ccccc43)C2C(=O)N1c1ccc(I)cc1 (centres undefined) | -0.195 | nt
CC(=O)N(Cc1ccco1)C1(C(=O)NC2CCCCC2)CCCCC1 | -1.7 | nt
O=C1C=C(NCc2ccccc2)C2(CCCCC2)O1 | 0.42 | -0.75
Cc1cc(-c2csc(-c3ccccc3)n2)c(C)n1-c1cccc(S(=O)(=O)N2CCOCC2)c1 | nt | 0.15
Fc1cccc(-c2csc(COc3ccccc3Cl)n2)c1 | 10.3 | -0.8
CC(C)OCC(O)Cn1c(N2CCCCCC2)nc2c1c(=O)n(C)c(=O)n2C (centres undefined) | nt | -0.15
O=C1Nc2ccccc2C(O)(C(=O)N2CCCCC2)N1c1ccccc1 (centres undefined) | -0.23 | 1.95
CC(C)C(c1nnnn1Cc1ccccc1)N1CCN(c2ccccc2)CC1 (centres undefined) | nt | 0.3
Cc1ccc(S(=O)(=O)c2cnc(-c3ccc(O)cc3)nc2-c2cccnc2)cc1 | -0.85 | nt
C=CCn1c(=O)[nH]c(=O)n(CC=C)c1=O | nt | -0.55
COc1ccc(C2OCc3ccccc3N2C(=O)c2cccc(OC)c2)cc1 (centres undefined) | 0.21 | 1.3
Cc1cc(NC(=O)C2CCCCC2)no1 | nt | -0.45
CC(C)(C)c1cc(CCC(=O)N2CCNCC2)c(C(C)(C)C)cc1O | -0.78 | 2.95
O=C(Oc1ccc(C2(c3ccc(OC(=O)c4ccc(Cl)cc4Cl)cc3)c3ccccc3-c3ccccc32)cc1)c1ccc(Cl)cc1Cl | -0.55 | nt
CN(C)C(=O)CSc1nc2ccccc2n1C(=O)c1ccc(Cl)cc1 | -0.22 | nt
O=C(NCCCN1CCOCC1)c1cc(-c2ccc(F)cc2)nc2ccccc12 | 21.4 | 0.7
Cc1onc(-c2ccccc2Cl)c1C(=O)NCC1CCN(C(=O)OC(C)(C)C)CC1 | -0.475 | -0.3
O=C(CSc1nc2ccccc2n1CCc1ccccc1)c1cccs1 | nt | -0.1
COC(CNC(=O)c1ccc2c(c1)nc(C)n2-c1ccc(OCc2ccccc2)cc1)OC | 0.675 | nt
CN(C)C(=O)c1ccc2ncsc2c1 | 0.21 | 1
CC(C)Oc1ccc(C(=O)O)cc1 | -0.015 | 0.8
CCCN1C(=O)C(NC(C)=O)c2cc(F)ccc21 (centres undefined) | 0.805 | -0.05
O=C(CSC1CCCC1)c1cccs1 | 0.015 | -0.6
O=C(CN1C(=O)/C(=C/c2ccccc2F)Oc2ccccc21)N1CCOCC1 | 11.6 | 1.7
Nn1c(SCc2cc(=O)oc3cc4c(cc23)CCC4)nnc1-c1cccnc1 | nt | 0.35
O=S(=O)(CS(=O)(=O)N1CCOCC1)N1CCOCC1 | 0.155 | nt
CCc1nc2sccc2c(=O)[nH]1 | 0.355 | 1.2
Cc1ccc(SCC(=O)NC2CC3CCC(C2)N3C)cc1 (centres undefined) | 0.55 | -0.6
O=C1CC(c2ccc3c(c2)OCO3)CC2=C1C(c1ccc(C(F)(F)F)cc1)Nc1ccccc1N2 (centres undefined) | -1.27 | nt
CN(C(=O)CC1(CC(=O)O)CCCC1)C1CCCCC1 | -0.875 | -0.75
Cc1onc(-c2ccccc2)c1C(=O)Oc1cccnc1 | 35.2 | 0.15
CCOc1ccc(NC(=O)C2CCC(CNC(=O)c3ccc(=O)[nH]c3)CC2)cc1 (centres undefined) | -0.21 | -0.55
Cc1cc(C=C2C(=O)OC(C)(C)OC2=O)c(C)n1-c1ccc(I)cc1 | -0.08 | 1.4
CC(C)Cc1csc(NC(=O)/C=C/c2ccccc2)c1C(=O)O | -0.09 | 0.5
CCn1c(C(=O)N2CCCC(C(=O)NC(C)C34CC5CC(CC(C5)C3)C4)C2)cc2sccc21 (centres undefined) | -0.025 | -0.5
CN(CC(=O)NCc1ccccc1)S(=O)(=O)c1ccc2nc(-c3ccccc3)[nH]c2c1 | 1.36 | -0.15
CCN1C(=O)/C(=C/C=C2/Sc3ccccc3N2CC)SC1=S | 0.19 | 0.25
CCc1ccc(C(=O)CN2C(=O)C(C)N(c3ccc(C)cc3)C2=O)cc1 (centres undefined) | nt | -0.45
CN(Cc1nc2ccccc2c(=O)[nH]1)Cc1nc2scc(-c3cccs3)c2c(=O)[nH]1 | nt | 0.45
COC(=O)c1ccc(NC(=O)C(c2ccccc2)c2ccccc2)cc1 | -0.105 | 0.2
CCS(=O)(=O)N(C)c1ccc(C(N)=O)cc1 | -0.47 | 0.05
NNC(=O)Cn1nc2n(c1=O)-c1ccccc1SC2 | 0.46 | -0.7
COc1ccc(-n2c(SCC(=O)O)nc3sc4c(c3c2=O)CCC4)cc1 | -0.46 | nt
CC1CC(C)CN(C(=O)CSc2nnc(COc3ccc(Cl)cc3)o2)C1 (centres undefined) | 0.085 | -0.35
CSc1nc(S(=O)(=O)c2ccc(C)cc2)c(N2CCOCC2)s1 | nt | 1.2
FC(F)(F)c1cccc(-c2cc3ccccc3nc2Oc2ccc(Cl)cc2)c1 | 3.04 | nt
O=C1C(=O)N(c2cccc(Cl)c2)C(c2ccc3c(c2)OCO3)/C1=C(\O)c1ccccc1 (centres undefined) | -0.4 | nt
COC(=O)c1cccc(NC(=O)NCc2ccccc2)c1 | 0.42 | nt
Cc1nc2c3ccccc3ncn2n1 | nt | 0.55
O=C(Nc1ccccc1)C(F)(F)F | -0.56 | 1.75
COc1cccc(-c2nc3c(c(SC)n2)Cc2c(CO)cnc(C)c2O3)c1 | 0.155 | -1
Cc1ccc(-c2csc(/C(C#N)=C/Nc3ccccc3)n2)cc1C | 0.1 | 0.4
CN1CCc2c(n(CC(O)CN3CCCC3)c3ccccc23)C1=O (centres undefined) | 9.91 | -0.5
CCCCN1C(=S)NS(=O)(=O)c2ccccc21 | -0.07 | 1.4
CN(C)CCOC(=O)C12CC3CCC(CC(C3)C1)C2 | -0.56 | 0.55
C=CCSC1=C(C#N)C(C)(C)C(C#N)C(=O)N1 (centres undefined) | -0.83 | -0.95
CCN1CCCC1CNC(=O)Cn1ncc2c3ccccc3n(Cc3ccc(F)cc3)c2c1=O (centres undefined) | 13.4 | -1.7

Remaining list, next part
SMILES | Ba CapD inh | AID504770
CN(C)S(=O)(=O)c1cccc(C(=O)OCCN2C(=O)c3ccccc3C2=O)c1 | nt | -0.75
O=C1c2cccc3cccc(c23)C(=O)N1CC1CCN(S(=O)(=O)c2cccc3cccnc23)CC1 | 18.7 | nt
NC(=O)NCCN1CCN(c2ncc(C(F)(F)F)cc2Cl)CC1 | -0.21 | nt
COc1cccc(C(=O)N/N=C/c2ccsc2)c1 | -0.18 | nt
Cc1ccc2cc3cc(C(=O)NCc4ccc(F)cc4)oc3nc2c1 | 50.4 | 0.85
CC(C)N(CC(N)=O)C(=O)COc1ccccc1Cc1ccccc1 | nt | -0.55
Cc1cccc2cc(C#N)c(SCC#N)nc12 | nt | -0.65
COC(=O)c1ccc2c(=O)n(-c3ccc(F)c(Cl)c3)c(SCC(=O)C(C)(C)C)nc2c1 | 0.43 | 0.3
O=C(CCNC(=O)c1ccco1)NC12CC3CC(CC(C3)C1)C2 | nt | -0.9
N#Cc1ccc(/C=C/[N+](=O)[O-])cc1 | 1.39 | nt
O=C1CCN(C(C(=O)Nc2ccc(F)cc2)c2ccccc2)CC1 (centres undefined) | nt | -0.35
O=C(CSc1nc(O)cc(=O)[nH]1)Nc1ccccc1 | nt | 0.35
Cc1noc(C)c1COC(=O)C(c1ccccc1)c1ccccc1 | nt | 0.7
COc1ccc(Br)cc1C(=O)Nc1cc(-c2nc3cc(C)cc(C)c3o2)ccc1C | -0.035 | nt
CCCS(=O)(=O)c1c(S(=O)(=O)CCC)c2c(C)cccn2c1C(=O)c1ccc(Br)cc1 | -0.275 | nt
CN1C(=O)C(O)(c2sc(N)nc2-c2ccccc2)c2ccccc21 (centres undefined) | nt | -0.45
O=C(OCCNc1ccc([N+](=O)[O-])cn1)c1ccc([N+](=O)[O-])o1 | -1.71 | nt
CCC(SCCSC(CC)C(=O)Nc1nnc(C)s1)C(=O)Nc1nnc(C)s1 (centres undefined) | 0.06 | nt
Cc1cc(C)c(C2=NON3N(C(=O)c4cccc(Br)c4)c4ccccc4N23)c(C)c1 | -1.39 | nt
Cn1cc(CC(=O)Nc2ccccc2)c2ccccc21 | -0.8 | -0.1
CC(C)C(NC(=O)Cc1n[nH]c(=O)c2ccccc12)c1ccc2c(c1)OCCCO2 (centres undefined) | nt | 1.3
CCNc1nc2cc(C)nn2c2ccccc12 | nt | 0.15
O=C1CSC(c2cn(-c3ccccc3)nc2-c2ccccc2)N1CCCN1CCOCC1 (centres undefined) | nt | -0.2
Cc1nc2ccc(Br)cc2c(-c2ccccc2)c1C(=O)O | 0.075 | 0.55
CCCCOc1ccc(C(=O)NO)cc1OC | nt | 0.3
CC1CCCCN1Cc1ccc(-c2nn[nH]n2)cc1 (centres undefined) | -0.115 | -0.55
O=C(NS(=O)(=O)c1ccc(N=NN2CCOCC2)cc1)C12CC3CC(CC(C3)C1)C2 | nt | -0.15
CCOc1cccc2c1N(C(=O)Cc1ccc(F)cc1)C(C)(C)C(=S)C2=C1SC(C(=O)OC)=C(C(=O)OC)S1 | -0.275 | nt
CC1(C)Cc2c(c3ccccc3n2-c2ccccc2)C(C)(C)N1 | 1.46 | -0.15
CCCS(=O)(=O)/C(C#N)=C/c1sccc1Oc1ccccc1 | -0.53 | -1.1

A second format for some results above:
smiles	Ba CapD inh	AID504770
CCNc1nc2cc(C)nn2c2ccccc12	nt	0.15
CC1CCCCN1Cc1ccc(-c2nn[nH]n2)cc1 (centres undefined)	-0.115	-0.55
CCC(SCCSC(CC)C(=O)Nc1nnc(C)s1)C(=O)Nc1nnc(C)s1 (centres undefined)	0.06	nt
CC1(C)Cc2c(c3ccccc3n2-c2ccccc2)C(C)(C)N1	1.46	-0.15

(listing goes on)
SMILES | Ba CapD inh | AID504770
Nc1c(C(=O)c2ccc(F)cc2)oc2ccc(Cl)cc12 | 0.06 | nt
Cc1ccc(SCCNC(=O)c2cccnc2Oc2ccccc2)cc1 | -0.065 | 0.55
COC(=O)c1ccc(COc2ccc(C3OC(C)CC(C)(C)O3)cc2OC)cc1 (centres undefined) | 0.545 | -0.55
CSc1nc2c(c(C(F)(F)F)n1)CC(C)CC2 (centres undefined) | 1.13 | -0.4
COc1cc2c(cc1OC)C(C)N(C(=O)Nc1ccccc1)CC2 (centres undefined) | 1.02 | 0.1
CSc1cccc(NC(=O)CN(C)S(=O)(=O)c2cnc[nH]2)c1 | 6.9 | 0.75
CCOc1ccc(/C=C(\C#N)c2cccc(Cl)c2)cc1 | -1.25 | nt
C=CCc1cccc(C2Nc3ccccc3C(=O)N2O)c1O (centres undefined) | 2.54 | -2.65
O=C(Nc1cccs1)Nc1nnc(C2CC2)s1 | -0.68 | -1.1
N#C/C(=C\c1cccnc1)C(=O)OCc1ccccc1 | 0.685 | -0.15
Cc1ccc(S(=O)(=O)N2C(=O)CCC2C(=O)NCCOc2ccccc2C)cc1 (centres undefined) | 0.18 | -0.1
O=C(NCCNc1ccccc1)OCCCCCc1ccccc1 | 0.11 | nt
Cc1[nH]c2ccc(C(=O)O)cc2c1C(C)C | nt | 0.25
COc1ccc(Cn2c(O)c(/C=N/Nc3nc(C)cc(=O)[nH]3)c3ccccc3c2=O)cc1 | nt | 1.95
CCCCSc1nnc2c(n1)OC(/C=C/c1ccco1)Nc1ccccc1-2 (centres undefined) | -0.68 | nt

Sorted by molar mass (highest first): part of the list above
SMILES | Ba CapD inh | AID504770
CC(C)(C)c1cc(CCC(=O)N2CCNCC2)c(C(C)(C)C)cc1O | -0.78 | 2.95
N#C/C(=C\c1cccnc1)C(=O)OCc1ccccc1 | 0.685 | -0.15
Cc1[nH]c2ccc(C(=O)O)cc2c1C(C)C | nt | 0.25

Remaining list, next part:
SMILES | Ba CapD inh | AID504770
CCC(=O)Nc1ccc(-c2nc3ccc(C)cc3s2)cc1 | 85.8 | -0.85
Clc1c(C=NCc2ccco2)sc2ccccc12 | nt | -0.65
O=C1Cc2cc(C(=O)CSc3nnc(-c4ccccn4)c(-c4ccccn4)n3)ccc2N1 | nt | 0.1
COC(=O)/C=C1\SC(c2ccccc2)=NC1=O | 0.02 | -0.25
O=C(CNC(=O)c1cccnc1)NCc1cccs1 | 0.44 | nt
Cc1ccc2nc(-c3ccc(NS(=O)(=O)c4cccc5nonc45)cc3)sc2c1 | 3.96 | nt
O=C(Nc1ncc(S(=O)(=O)c2ccc([N+](=O)[O-])cc2)s1)c1ccco1 | -0.645 | nt
Cc1ccc(S(=O)(=O)CCN2CCN(c3ccccn3)CC2)cc1 | 0.485 | -1.3
CC(C)Nc1ccc(Nc2ccnc3cc4ccccc4cc23)cc1 | -0.055 | -0.5
O=C(CN1C(=O)c2ccccc2S1(=O)=O)NCc1ccccc1 | 0.325 | nt
Cc1ccc(/C=c2/sc3nc(=O)cnn3c2=O)cc1 | nt | -0.3
O=C(NCCc1ccccc1)c1noc2c1CCCC2 | -0.26 | 0.35
Cc1ccc2nc(N3CCN(C=O)CC3)nc(-c3ccccc3)c2c1 | nt | 0.7
